Source: PubChem BioAssay
RE007 growth inh: qHTS Assay for Inhibitors of the HIV-1 protein Vpr | AID 651644, 2012 | 0.21% of 360,000 active | S. pombe RE007 Vpr strain, BacTiter-Glo ATP luminescence, 24 h; control for the full effect not named in the record | Potency, µM (top dose mostly 92.2 µM), for the others: top-dose activity change, negative = less growth; active = well fitted falling curve with a large enough effect; inconclusive = small, poorly fitted or top-dose-only effect; inactive = no such curve, though single readings can be large or run the other way;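 note: % is set by controls: 0 for no effect and ±100 for the full control effect; nearly all actives have a fitted effect of over 50% in size; the assay follows cell death caused by Vpr and the record does not say whether a fall means rescue or toxicity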
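Fission yeast RE007 carrying one integrated HIV-1 vpr copy, seeded at OD 0.01 in PMG+AL medium with 23 nL pinned compound. Grown 24 h at 30 degrees; viability read by BacTiter-Glo luminescence after 5 min.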
NS1 inh: qHTS Assay for Inhibitors of Influenza NS1 Protein Function | S. cerevisiae slowed by influenza A NS1, growth recovery by OD600 | Potency, µM (titrated, usually from 46.1 µM), without a hit: at the highest dose activity, positive = more growth | 0.4% of 270,000 active | AID 2326, 2010; note: actives are rising curves; nearly all actives have a fitted effect of over 50% in size
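Growth recovery, yeast-based: influenza A NS1 expressed in S. cerevisiae causes slow growth, and suppressors are detected by OD600. The parent strain without NS1 is used as positive control.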
SARS PLP yeast: qHTS of Yeast-based Assay for SARS-CoV PLP. S. cerevisiae expressing SARS-CoV PLpro, growth rescue; control for the full effect not named in the record. Potency, µM (doses to about 32.9 µM), without a hit: at the highest dose activity, positive = growth rescue. 0.19% of 330,000 active. AID 485353, 2010; note: 0% is about no effect; nearly all actives have a fitted effect of over 55% in size; growth read by luminescence after 48 h
Lassa entry inh: qHTS for Inhibitors of binding or entry into cells for Lassa Virus | Lassa virus pseudotype entry inhibition, cell reporter; control for the full effect not named in the record | Potency, µM (titrated, usually from 37.9 µM), for inactives: at the highest dose activity change, negative = inhibition, most hits filed as inhibitors | 1.2% of 300,000 active; active means well fitted inhibition curve with a large enough effect; inconclusive means small, poorly fitted or top-dose-only effect, or effect the other way; inactive means flat fitted curve, though single readings scatter; tested in HEK293 cells; note: % is set by controls: 0 for no effect and ±100 for the full control effect; nearly all actives have a fitted effect of over 50% in size; luciferase read-out
MARV entry inh: qHTS for inhibitors of binding or entry into cells for Marburg Virus; Marburg virus pseudotyped entry inhibition, cell reporter; control for the full effect not named in the record; about a third of the inactives were read at about 46 µM; Potency, µM (highest dose often 37.8 µM), for the others: at the highest dose activity change, negative = inhibition, usual class: inhibitors; AID 540276, 2011; 1.8% of 300,000 active; active = well fitted inhibition curve with a large enough effect; inconclusive = small, poorly fitted or top-dose-only effect, or effect the other way; inactive = flat fitted curve, though single readings scatter; tested in HEK293 cells; about a fifth of its hits are not listed in these tables; note: % is set by controls: 0 for no effect and ±100 for the full control effect; luciferase read-out
Cruzain Triton: qHTS Assay for Promiscuous and Specific Inhibitors of Cruzain (with detergent) | Cruzipain (Trypanosoma cruzi), P25779 | 0.43% of 200,000 active | AID 1478, 2009 | purified cruzain, Z-FR-AMC fluorescence, 0.01% Triton | Potency, µM, for inactives: max response, negative = inhibition, actives largely listed as inhibitors; active = well fitted curve in the direction sought with a large enough effect; inconclusive = small, poorly fitted or top-dose-only effect, or another doubt; inactive = no such curve, though single readings can be large; an effect the other way counts as inactive or inconclusive;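 note: plate controls were neutral wells for no effect and buffer without enzyme for full effect; nearly all actives have a fitted effect of over 40% in size; top concentration of the series not given in the record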
Target sequence (P25779 123-467 limits assumed): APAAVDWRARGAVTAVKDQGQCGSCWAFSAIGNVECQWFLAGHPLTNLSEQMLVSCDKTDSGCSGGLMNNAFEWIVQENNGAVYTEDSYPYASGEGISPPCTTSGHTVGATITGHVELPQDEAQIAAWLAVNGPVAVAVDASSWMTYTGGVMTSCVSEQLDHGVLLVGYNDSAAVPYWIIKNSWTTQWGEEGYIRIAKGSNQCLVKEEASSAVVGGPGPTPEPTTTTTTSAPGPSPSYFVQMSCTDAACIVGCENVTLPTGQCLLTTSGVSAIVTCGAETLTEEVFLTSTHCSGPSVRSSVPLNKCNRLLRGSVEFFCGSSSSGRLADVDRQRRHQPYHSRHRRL
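Detergent-containing arm of a paired screen for aggregation-based inhibition: 0.01% Triton X-100 present. Cruzain at 1.5 nM cleaved 2 uM Z-FR-AMC at pH 5.5 with 5 mM DTT; AMC fluorescence gain over 60 s measured activity.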
Cruzain inh noDet: qHTS Assay for Promiscuous and Specific Inhibitors of Cruzain (without detergent); Cruzipain (Trypanosoma cruzi), P25779; purified cruzain, Z-FR-AMC fluorescence, no detergent; Potency, µM, without a hit: max response, negative = inhibition, actives largely listed as inhibitors; 2.3% of 200,000 active; active = well fitted curve in the direction sought with a large enough effect; inconclusive = small, poorly fitted or top-dose-only effect, or another doubt; inactive = no such curve, though single readings can be large; an effect the other way counts as inactive or inconclusive;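 note: plate controls were enzyme without inhibitor for no effect and buffer without enzyme for full effect; nearly all actives have a fitted effect of over 40% in size; top concentration of the series not given in the record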
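Detergent-free condition (0.00005% Triton X-100) in acetate buffer pH 5.5 with DTT. 1.5 nM enzyme and compound were pre-mixed 15 min, then 2 uM Z-FR-AMC substrate added; reaction progress from fluorescence change between first and third reads (60 s).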
2A StopGo: High Throughput Screening for Foot and Mouth Disease Virus Antivirals; AID 1159524, 2015; Potency, µM (doses to about 57.9 µM), for inactives: at the highest dose signal change, negative = less light; 1.2% of 410,000 active; human cells with a luciferase reporter of 2A StopGo recoding; control for the full effect not named in the record; active = well fitted falling curve with a large enough effect; inconclusive = small, poorly fitted or top-dose-only effect; inactive = no such curve, though single readings can be large or run the other way; tested in HEK293T cells; note: % is set by controls: 0 for no effect and ±100 for the full control effect; nearly all actives have a fitted effect of over 45% in size; luciferase light after 4 h
* = called active by the depositor; ? = inconclusive; . = no result given; & = joins results of further samples; [ ] = another dose, or the depositor's remark. Unless noted, calls come from the whole dose curve; as a rule, active means well fitted rising curve with a large enough effect; inconclusive means small, poorly fitted or top-dose-only effect; inactive means no such curve, though single readings can be large or run the other way. Potency is the fitted concentration of half-maximal effect. Compounds as they come. Share with any hit: about 4.6%.

SMILES | RE007 growth inh | NS1 inh | SARS PLP yeast | Lassa entry inh | MARV entry inh | Cruzain Triton | Cruzain inh noDet | 2A StopGo
O=[N+]([O-])c1ccc(S(=O)(=O)Nc2ccncc2)cc1 | -9% | 0% | -1% | 2% | 5% | . | . | -15%
COC(=O)C1(C)NC(c2ccc(O)cc2)C2C(=O)N(c3ccccc3)C(=O)C21 (stereo not given) | 2% | -8% | -3% | . | . | . | . | -17%
COc1ccc(-n2nc3c(c2NC(=O)c2ccccc2S(=O)(=O)C(F)F)CS(=O)(=O)C3)cc1 | 4% | 4% | -2% | -28% | ? | . | . | -16%
O=C(COc1ccccc1)Nc1nc(-c2ccncc2)cs1 | 6% | 11% | 0% | -16% | ? | . | . | 28µM*
Cc1nc2ccc(Br)cn2c1C(=O)N/N=C\c1ccccc1[N+](=O)[O-] | -3% | 5% | 0% | 2% | -10%[46.1 µM] | . | . | 38%[activator]
Cc1cc(C)n(-c2ccc(C(=O)Nc3ccccn3)cc2)n1 | -4% | -150% | -5% | ? | ? | 4.5% | 9% | -56%
O=C1c2cnc3nc(SCc4ccccc4)nn3c2CC2c3ccccc3CCN12 (stereo not given) | 14% | -2% | 3% | ? | -1% | -6.1% | -3% | 32%[activator]
Cn1c(Cn2cnc(Cl)c2Cl)nc2ccccc21 | 5% | 0% | 1% | 8% | 1% | -2.2% | 2% | 7%
Cc1cc(C)nc(NC(N)=NC2CCCCC2)n1 | 0% | 5% | 13% | 1% | -33% | -1.7% | -3% | -24%
Cc1nn(C)c(C)c1S(=O)(=O)N1CCC(C(=O)NC2CCCCC2)CC1 | -21% | -5% | 3% | 8% | 12% | 2.3% | -1% | -3%
CCOC(=O)C1CCCN(C(=O)CN2C(=O)c3ccccc3C2=O)C1 (stereo not given) | -5% | 14% | 8% | 3% | 18% | -1.2% | -10% | -4%
Cn1c(-c2cnn(-c3ccccc3)c2N)n[nH]c1=S | 10% | 7% | 0% | . | . | . | . | 12%
CCc1c(C)nc2c(Br)cccc2c1SCCC#N | -6% | -3% | -22% | -2% | -14% | -4.4% | -9% | ?
O=C(COC(=O)/C=C/c1ccc(F)cc1)NC1CCS(=O)(=O)C1 (stereo not given) | -23% | . | 0% | -1% | -10% | . | . | -11%
COc1ccc(CCN(C)C(=S)Nc2cccc(C)c2)cc1OC | -5% | -7% | -2% | . | ? | . | . | 6%
N#Cc1c[nH]n2c(NC3CCCCC3)c(-c3ccccc3F)nc12 | . | . | . | 5%[46.1 µM] | -11%[46.1 µM] | -2.1% | -1% | -8%
CCOC(=O)N1CCC(NC(=O)c2cccn3c(=O)c4cc(Br)ccc4nc23)CC1 | -15% | 11% | -14% | 0% | -1%&15% | -0.4% | -6% | -18%
O=C(Nc1sccc1C(=O)NCc1ccco1)c1cccnc1 | -3% | -35% | 0% | -6% | -7% | ? | -17% | -23%
O=C(Cn1nnc(-c2ccccc2)n1)N=Nc1c(O)[nH]c2ccccc12 | 9% | 4% | 10% | 4% | ? | -3.0% | 11% | 2%
O=C1OC(N2CCN(Cc3ccccc3)CC2)c2ccccc21 (stereo not given) | 5% | 2% | . | -6% | 6% | . | . | 7%
O=C(NCc1nnnn1-c1ccc(F)c(F)c1)c1ccc2ccccc2c1 | -5% | . | 3% | -15% | -7%[46.1 µM] | . | . | -6%
O=C(CCNC(=O)c1ccccc1Cl)Nc1nc2ccccc2s1 | 2% | . | 0% | -3% | 13%[46.1 µM] | . | . | 46%[activator]
CNC(=O)CN(C1CCCCC1)S(=O)(=O)c1ccc(F)cc1 | 3% | ? | 3% | 0% | 0% | 2.0% | -3% | -10%
Fc1cc(F)cc(NC(=S)N2CCN(c3ncccn3)CC2)c1 | -24% | 3% | -2% | ? | ? | . | . | 7%
Cc1ccc(SCC(=O)NNC(=O)c2ccccc2)c(C)c1 | -3% | 1% | -2% | 24%[46.1 µM] | 1%[46.1 µM] | . | . | 0%
CCOc1cc(CNn2nnnc2N)ccc1OCC(=O)NC(C)(C)C | 20% | -4% | 15% | -10% | ? | 0.6% | 2% | 5%
COc1c(Cl)cc(Cl)cc1C(=O)n1nc(C)cc1C | 3% | 6% | -15% | 11% | 12% | -5.0% | -8% | -17%
O=C(CSc1n[nH]c(=O)[nH]c1=O)Nc1ccc(SC(F)F)cc1 | 1% | . | 1% | 35% | -4% | . | . | -21%
O=C(NCc1ccccc1Cl)c1ccccc1CCc1ccccc1 | 7% | -6% | -11% | 2% | 16% | -6.0% | 1% | 15%
CCc1c(C)sc(NC(=O)c2ccco2)c1C#N | -17% | -54% | -13% | . | . | . | . | 46%[activator]

Single records, from the list above. Order of values: RE007 growth inh, NS1 inh, SARS PLP yeast, Lassa entry inh, MARV entry inh, Cruzain Triton, Cruzain inh noDet, 2A StopGo
Record of O=C(CSc1n[nH]c(=O)[nH]c1=O)Nc1ccc(SC(F)F)cc1 = 1%, ., 1%, 35%, -4%, ., ., -21%
Record of Fc1cc(F)cc(NC(=S)N2CCN(c3ncccn3)CC2)c1 = -24%, 3%, -2%, ?, ?, ., ., 7%

Additional records:
SMILES | RE007 growth inh | NS1 inh | SARS PLP yeast | Lassa entry inh | MARV entry inh | Cruzain Triton | Cruzain inh noDet | 2A StopGo
O=Cc1ccccc1OCCOc1ccc([N+](=O)[O-])cc1 | 3% | . | -9% | 18% | -25% | . | . | 12%
COc1cc(-c2nnc(SCC(=O)NC3CCS(=O)(=O)C3)o2)cc(OC)c1OC (stereo not given) | 5% | . | 1% | 0% | 11%[46.1 µM] | . | . | 3%
Cc1ccc2c(COC(=O)c3ccccc3F)cc(=O)oc2c1 | -1% | -3% | -13% | ? | -24%[46.1 µM] | . | . | -4%
Cc1cc(C)cc(N(CC(=O)NCc2ccc(F)cc2)C(=O)CCC(=O)Nc2ccccn2)c1 | 3% | ? | 8% | ? | ? | . | . | -30%
CCc1nnc(NC(=O)CSc2nccn2-c2cccc(C)c2)s1 | 21% | -16% | 13µM* | . | . | 2.1% | 0% | -27%
CC1(C)CC(NC(=O)c2ccc(-c3ccc([N+](=O)[O-])cc3)o2)CC(C)(C)N1 | 2% | 5% | 3% | ? | -22%[46.1 µM] | . | . | -15%
CC1=NN(C(N)=S)C(=O)C1N=Nc1c(C)cc(C)cc1C (stereo not given) | -8% | -131% | 8% | -13% | 22%[46.1 µM] | -27% | 13µM* | 31%[activator]
CCCn1c(CCNc2nc(-c3ccc(OC)cc3)cs2)nc2ccccc21 | -11% | 22% | -1% | . | . | . | . | 0%
Cc1nc(C(F)(F)F)ccc1C(=O)Nc1ccccc1F | -11% | 2% | 0% | ? | ? | . | . | 10%
O=C(c1ccccc1)c1sc(N2CCOCC2)nc1-c1ccccc1 | 0% | . | -6% | ? | ? | . | . | ?
CCc1ccccc1Nc1cc(C(=O)NC(C)c2ccccc2)c2ccccc2n1 (stereo not given) | . | . | . | ? | ? | -8.3% | -29% | 3%
CC(=O)Nc1ccc(S(=O)(=O)N2CCN(S(=O)(=O)N3CCC(C)CC3)CC2)cc1 | -6% | -6% | 3% | 5% | 14%[46.1 µM] | . | . | -2%
COC(=O)c1c(O)cc(C(C)(C)C)n(-c2ccc(F)cc2)c1=O | 0% | 8% | 9% | -1% | -7% | -1.0% | -1% | -8%
COc1ccccc1N1CCN(C(=O)c2ccc(NS(=O)(=O)c3ccc(C)cc3)cc2)CC1 | -6% | 1% | 1% | ? | ? | . | . | 8%
O=C(c1cnn(C(=O)c2ccco2)c1)c1cc(Cl)cc(Cl)c1O | -11% | . | -3% | -3% | -5% | . | . | -14%
CCCCOP(=O)(c1ccc(N(C)C)cc1)C(O)c1ccccc1F (stereo not given) | -4% | 2% | -2% | -4% | -11% | -0.4% | 25% | 52%[activator]
O=C(CSc1nc2ccccc2[nH]1)Nc1cc(C(F)(F)F)ccc1N1CCOCC1 | 6% | -39% | -1% | -27% | -17% | -8.3% | 0% | ?
Cc1cc(C)nc(SCc2nnc(SCc3ccccc3Cl)o2)n1 | 19% | -32% | -15% | ? | ? | -3.0% | -1% | -16%
Cc1cc(C(=O)OCC(=O)N2c3ccccc3NC(=O)C2(C)C)c(C)n1-c1ccccc1 | -8% | 2% | ? | ? | ? | -6.5% | -5% | ?
O=C(Nc1ccc(-c2nc3ccccc3o2)cc1)c1ccc2c(c1)OCO2 | -16% | 0% | . | 3% | -8% | -1.9% | -11% | 7%
CCC(=O)Nc1ccc(-c2nnc(SCc3ccc(C(=O)Nc4nccs4)cc3)n2CC)cc1 | -12% | ? | -8% | ? | ? | 1.8% | -4% | -5%
O=CN1CC(=O)N(c2ccccc2)c2c([nH]c3ccccc23)C1 | 11% | 2% | 4% | -1% | 10% | 2.6% | 11% | -20%
CCC(CC)C(=O)Nc1cc(-c2ccccc2F)nn1-c1ccccc1 | . | . | . | 13%[46.1 µM] | . | 0.8% | -3% | -10%
COc1ccc(-c2nc3ccccc3s2)cc1O | ? | -83% | -18% | 7.1µM* | 7.1µM* | -8.1% | -3% | -58%
CN(C)/C=C/C(=O)c1ccc2noc(-c3ccccc3)c2c1 | 101% | -7% | -3% | -14%[46.1 µM] | 5%[46.1 µM] | . | . | -6%

Ordered by molar mass (lowest first): some entries from above
SMILES | RE007 growth inh | NS1 inh | SARS PLP yeast | Lassa entry inh | MARV entry inh | Cruzain Triton | Cruzain inh noDet | 2A StopGo
CCc1nnc(NC(=O)CSc2nccn2-c2cccc(C)c2)s1 | 21% | -16% | 13µM* | . | . | 2.1% | 0% | -27%
COc1cc(-c2nnc(SCC(=O)NC3CCS(=O)(=O)C3)o2)cc(OC)c1OC (stereo not given) | 5% | . | 1% | 0% | 11%[46.1 µM] | . | . | 3%
CCC(=O)Nc1ccc(-c2nnc(SCc3ccc(C(=O)Nc4nccs4)cc3)n2CC)cc1 | -12% | ? | -8% | ? | ? | 1.8% | -4% | -5%
